# Screening results (PubChem BioAssay)
# Ecoli rRNA inh = reduced GFP signal of wild-type E. coli, primary screen, bacterial rRNA inhibitor project, GFP/RFP fluorescence, OD600, single point. E. coli WT GFP vs humanized-ribosome RFP mutants, 24 h; stronger effect = lower value; DMSO median 0, no signal -100. GFP signal change (wild-type ribosome), % (no concentration beside the values). hit rate 1.6% among 350,000;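 active = significant combined selectivity score with lowered wild-type GFP, culture density cut under 30%, mutant RFP and density less affected; inactive = any of these conditions unmet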; note: one replicate is shown; some compounds called inactive have numbers as strong as hits
# AF4-AF9 inh = inhibitors of AF4 peptide binding to AF9, primary screen, biochemical, AlphaScreen, biotin-AF4 peptide, FLAG-AF9, single point | hit rate 0.47% among 350,000 | Protein AF-9 (Homo sapiens), P42568 | inhibition, % at 10 µM | AID 651704, 2012;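 active = every replicate reaching a set inhibition limit, whatever the replicate mean, cut at about 25% in these data; inconclusive = mean inhibition reaches that limit but some replicates miss it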;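 note: 0% = plate neutral control median and 100% = total signal loss; the record names both 10 and 1 µM as test concentration; the first replicate is given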
# Target sequence (P42568 whole entry, looked up): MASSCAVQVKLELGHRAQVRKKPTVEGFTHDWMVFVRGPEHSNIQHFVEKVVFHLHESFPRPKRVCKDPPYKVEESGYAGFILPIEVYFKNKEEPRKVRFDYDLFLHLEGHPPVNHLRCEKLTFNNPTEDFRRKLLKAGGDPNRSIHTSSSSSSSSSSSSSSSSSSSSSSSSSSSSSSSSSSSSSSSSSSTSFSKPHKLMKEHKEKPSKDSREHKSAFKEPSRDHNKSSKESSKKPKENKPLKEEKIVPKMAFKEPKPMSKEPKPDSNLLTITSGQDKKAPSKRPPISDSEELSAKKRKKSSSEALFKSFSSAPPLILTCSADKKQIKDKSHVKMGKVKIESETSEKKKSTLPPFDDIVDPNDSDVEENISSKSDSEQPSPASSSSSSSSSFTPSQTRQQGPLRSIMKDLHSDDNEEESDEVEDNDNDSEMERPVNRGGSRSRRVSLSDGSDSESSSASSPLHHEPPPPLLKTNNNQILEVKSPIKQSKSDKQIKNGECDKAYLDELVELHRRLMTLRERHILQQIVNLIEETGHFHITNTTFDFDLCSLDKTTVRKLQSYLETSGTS
# Ecoli rRNA inh OD600 = further read-out of Ecoli rRNA inh, marked with its call; OD600 change, %; measured here: OD600 growth;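 optical density of the mix in the first replicate; 0 = DMSO median and -100 = no signal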
# Ecoli rRNA inh RFP = also measured in Ecoli rRNA inh; calls as there; RFP signal change, %; measured here: RFP humanized mutant strains;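 first replicate; 0 = DMSO median and -100 = no signal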
# * hit, by the source's call; u = inconclusive. These rows are one share of the data (hit frequency here may not be typical).
entry	SMILES	Ecoli rRNA inh	Ecoli rRNA inh OD600	Ecoli rRNA inh RFP	AF4-AF9 inh
1	C[C@H](O)C#Cc1ccc2c(c1)O[C@H](CN(C)Cc1ccncc1)[C@@H](C)CN([C@H](C)CO)S2(=O)=O	-4.2	-6.6	0.2	-1.6
2	COc1ccc(Cl)cc1CC1(C)C(=O)Nc2ccc(S(=O)(=O)NC3CCCCC3)cc21 (configuration not stated)	-47.9	-72.6	-10.4	-2.0
3	CNC[C@H]1Oc2cc(C#CC3CCCC3)ccc2S(=O)(=O)N([C@H](C)CO)C[C@H]1C	1.3	9.7	5.9	-9.0
4	C[C@@H]1CN([C@H](C)CO)C(=O)c2ccccc2-c2ccccc2CO[C@@H]1CN(C)S(=O)(=O)c1ccc(Cl)cc1	0.7	-8.4	3.7	6.3
5	C[C@@H]1CN([C@H](C)CO)C(=O)Cc2cc(NC(=O)Cc3ccccc3)ccc2O[C@@H]1CN(C)Cc1ccc(C(=O)O)cc1	1.9	18.5	-0.4	-3.0
6	C[C@H](CO)N1C[C@H](C)[C@H](CN(C)S(C)(=O)=O)Oc2c(NC(=O)C3CCCCC3)cccc2C1=O	-1.8	-3.8	-2.2	-2.1
7	C[C@H]1CN([C@@H](C)CO)C(=O)c2cccc(NC(=O)Nc3ccc4c(c3)OCO4)c2O[C@@H]1CN(C)CC1CCCCC1	-13.7	-37.1	0.6	13.7
8	CO[C@@H]1CN(C)C(=O)c2cc(NC(C)=O)ccc2OC[C@@H](C)N(C(=O)C2CC2)C[C@@H]1C	-6.0	-4.6	-3.3	1.7
9	CCOC(=O)[C@]12CCCC=C1N(CCC1=CCCCC1)C(=O)[C@H](CC(=O)NCCCN1CCCC1=O)C2	-4.3	-2.9	5.1	-0.2
10	COCC#Cc1ccc2c(c1)O[C@H](CN(C)Cc1cccnc1)[C@@H](C)CN([C@H](C)CO)S2(=O)=O	-4.1	-4.0	-0.7	-0.9
11	CCCNC(=O)C[C@@H]1CC[C@@H]2[C@@H](COc3ccc(NC(=O)c4cccc(C(F)(F)F)c4)cc3C(=O)N2C)O1	-4.6	-7.4	-0.3	-1.8
12	CCCNC(=O)[C@@H]1[C@@H](CO)[C@@H]2Cn3c(ccc(-c4ccccc4F)c3=O)[C@@H]2N1C(=O)C1CCC1	0.9	-4.1	-2.4	-4.8
13	COc1ccc(NC(=O)Nc2ccc3c(c2)C(=O)N([C@@H](C)CO)C[C@@H](C)[C@H](CN(C)C(=O)Nc2ccccc2)OCCCC[C@H](C)O3)cc1	0.4	-2.6	-0.8	-10.5
14	CO[C@@H]1CN(C)C(=O)c2cc(NS(=O)(=O)Cc3ccccc3)ccc2OC[C@H](C)NC[C@H]1C	3.1	2.1	-0.7	4.3
15	CO[C@H]1CN(C)C(=O)c2cc(NS(=O)(=O)c3ccccc3)ccc2OC[C@@H](C)N(C)C[C@H]1C	0.6	4.6	-2.1	-0.6
16	Cc1noc(C)c1S(=O)(=O)Nc1ccc2c(c1)C(=O)N([C@H](C)CO)C[C@@H](C)[C@@H](CN(C)C(=O)Nc1ccc(C(F)(F)F)cc1)O2	0.7	-2.7	-0.7	-1.8
17	C[C@H](CO)N1C[C@H](C)[C@@H](CN(C)Cc2ccc(Cl)c(Cl)c2)Oc2ccc(NC(=O)Nc3ccc(C(F)(F)F)cc3)cc2C1=O	7.3	9.0	1.7	1.2
18	C[C@H]1CN([C@@H](C)CO)C(=O)Cc2cc(NC(=O)Cc3cn(C)c4ccccc34)ccc2O[C@@H]1CN(C)Cc1ccncc1	-1.6	-6.3	1.0	1.8
19	C[C@@H]1CN([C@H](C)CO)C(=O)Cc2cc(NC(=O)CCCCCC(=O)Nc3ccccc3N)ccc2O[C@@H]1CN(C)C(=O)Nc1ccc2c(c1)OCO2	3.3	6.5	-0.6	-0.5
20	O=C(NCC1CCCCC1)c1ccc2nc([C@@H]3O[C@H](CO)[C@@H](O)[C@H]3O)[nH]c2c1	12.0	18.7	4.7	3.0
21	C[C@H]1CN([C@@H](C)CO)C(=O)c2cc(NC(=O)c3ccncc3)ccc2O[C@H]1CN(C)S(=O)(=O)c1ccccc1	5.3	5.5	0.1	-1.1
22	C[C@@H]1CCCCO[C@@H](CN(C)C(=O)CCC(F)(F)F)[C@@H](C)CN([C@@H](C)CO)C(=O)c2cc(NC(=O)Nc3ccc4c(c3)OCO4)ccc2O1	0.0	5.2	-0.2	4.7
23	C[C@@H]1CN([C@H](C)CO)C(=O)c2cc(NS(=O)(=O)c3cn(C)cn3)ccc2O[C@@H]1CN(C)C(=O)Nc1ccc(C(F)(F)F)cc1	-3.9	-3.7	0.5	-5.4
24	Cc1ccc(S(=O)(=O)N(C)C[C@H]2OCc3ccccc3-c3c(n(C)c4ccccc34)C(=O)N([C@H](C)CO)C[C@H]2C)cc1	5.1	5.9	-4.7	3.0
25	C[C@H]1CN([C@@H](C)CO)C(=O)c2cc(/C=C/c3ccccc3)cnc2O[C@H]1CN(C)C(=O)C1CCCCC1	-8.8	-9.1	6.8	3.3

# Some of these compounds in order of formula weight, rising.
entry	SMILES	Ecoli rRNA inh	Ecoli rRNA inh OD600	Ecoli rRNA inh RFP	AF4-AF9 inh
6	C[C@H](CO)N1C[C@H](C)[C@H](CN(C)S(C)(=O)=O)Oc2c(NC(=O)C3CCCCC3)cccc2C1=O	-1.8	-3.8	-2.2	-2.1
24	Cc1ccc(S(=O)(=O)N(C)C[C@H]2OCc3ccccc3-c3c(n(C)c4ccccc34)C(=O)N([C@H](C)CO)C[C@H]2C)cc1	5.1	5.9	-4.7	3.0
23	C[C@@H]1CN([C@H](C)CO)C(=O)c2cc(NS(=O)(=O)c3cn(C)cn3)ccc2O[C@@H]1CN(C)C(=O)Nc1ccc(C(F)(F)F)cc1	-3.9	-3.7	0.5	-5.4

# (listing goes on)
entry	SMILES	Ecoli rRNA inh	Ecoli rRNA inh OD600	Ecoli rRNA inh RFP	AF4-AF9 inh
26	Cc1ccccc1-c1ccc([C@H]2[C@H]3CN(C(=O)Nc4ccccc4)CCCCN3[C@H]2CO)cc1	-11.4	-43.2	13.3	-5.1
27	COc1ccc(NC(=O)Nc2ccc3c(c2)C(=O)N([C@@H](C)CO)C[C@H](C)[C@H](CN(C)Cc2ccc4c(c2)OCO4)OCCCC[C@@H](C)O3)cc1	-2.0	-3.2	7.4	20.9
28	COc1ccc2c3c([nH]c2c1)[C@@H](CO)N(C(=O)NC1CCCC1)CC31CN(S(C)(=O)=O)C1	-2.9	-1.1	-2.6	-8.3
29	O=C(Cc1cccnc1)N1CC(=O)N2[C@H](C1)[C@@H](c1ccc(C#CC3CCCC3)cc1)[C@@H]2CO	-5.5	-9.5	1.8	-5.9
30	O=C(NC[C@@H]1N[C@@H](CO)[C@@H]1c1ccc(C2=CCCC2)cc1)c1ccccc1	-59.0	-78.3	-7.5	14.5
31	Cc1c(C(=O)NCc2ccccc2C(F)(F)F)sc(=O)n1Cc1ccc2c(c1)OCO2	15.9	4.7	-9.9	-4.3
32	CCc1nc2ccc(C(=O)N3CCN(C(=O)c4ccco4)CC3)cn2c1N(C)CCC(C)C	-8.6	-12.9	-1.5	-1.1
33	O=C(C[C@H]1C[C@H]2c3cc(NC(=O)NC4CCCC4)ccc3O[C@H]2[C@@H](CO)O1)NCc1ccc(Oc2ccccc2)cc1	1.4	2.5	-1.2	-2.3
34	CCCNC(=O)[C@@H]1[C@@H](CO)[C@@H]2Cn3c(ccc(-c4ccc(F)cc4)c3=O)[C@H]1N2C(=O)NC(C)C	-1.6	4.6	-2.7	-6.4
35	CO[C@@H]1CN(C)C(=O)c2ccc(NS(=O)(=O)CC(F)(F)F)cc2OC[C@H](C)N(C)C[C@H]1C	2.2	-3.1	2.0	0.8
36	C[C@@H]1CN([C@H](C)CO)C(=O)c2cc(-c3cncnc3)cnc2O[C@H]1CN(C)C(=O)c1ccccc1F	-0.2	3.9	-2.3	-0.6
37	Cc1noc(C)c1S(=O)(=O)Nc1ccc2c(c1)C(=O)N([C@H](C)CO)C[C@H](C)[C@@H](CN(C)C(=O)Nc1cccc3ccccc13)OCCCC[C@@H](C)O2	1.3	-6.4	-5.3	0.4
38	COc1ccc(CNC(=O)C2(C)Cc3c(-c4ccc(N(C)C)cc4)ccnc3O2)cc1OC (configuration not stated)	1.1	-8.7	-1.5	10.5
39	C=CCCC(=O)N1C[C@H]2CON(C)[C@H]2C[C@H]1c1ccc(Br)cc1	-0.7	3.0	-1.8	-2.2
40	O=C(NCc1ccccc1)C(C1CC1)n1c(Cc2cc(F)cc(F)c2)nc2ccccc21 (configuration not stated)	-2.8	-51.7	22.1	-1.6
41	CCCC#Cc1cnc2c(c1)C(=O)N([C@H](C)CO)C[C@@H](C)[C@H](CN(C)C(=O)NC1CCCC1)O2	-0.9	-4.3	1.4	-1.5
42	COCC(=O)N(C)C[C@H]1Oc2ncc(C#C[C@@H](C)O)cc2C(=O)N([C@@H](C)CO)C[C@@H]1C	2.7	4.3	0.2	-0.9
43	C[C@H]1CN([C@@H](C)CO)C(=O)c2cc(NC(=O)Cn3cnnn3)ccc2O[C@H]1CN(C)S(=O)(=O)c1cccs1	-0.5	2.5	0.3	-1.6
44	C[C@@H]1CN([C@@H](C)CO)C(=O)Cc2cc(NC(=O)Cn3cnnn3)ccc2O[C@H]1CN(C)S(=O)(=O)c1cn(C)cn1	3.4	-0.6	0.8	-0.7
45	COc1cccc(-c2ccc([C@H]3[C@@H](CO)N4CCCCN(S(=O)(=O)c5cccs5)C[C@@H]34)cc2)c1	-2.0	1.5	-3.2	-3.6
46	CN1C(=O)c2cc(NC(=O)c3cccc(F)c3)ccc2OC[C@H]2O[C@H](CC(=O)N3CCc4ccccc4C3)CC[C@@H]21	-6.4	-17.4	1.4	0.9
47	CC(=O)CC1c2cc(F)ccc2C=C(c2ccsc2)N1c1ccc(C#Cc2cncn2C)cc1 (configuration not stated)	2.4	4.2	4.2	-0.1
48	CCc1cnc(Nc2nc(C(N)c3ccccc3Cl)cs2)nc1 (configuration not stated)	-12.5	-31.8	19.2	-0.9
49	O=C(C1CCC1)N1CC[C@@H]2[C@@H](CO)Nc3ccc(C#Cc4ccc(F)cc4)cc3[C@@H]21	-6.8	-38.2	26.9	u
50	O=C(c1cccc(Br)c1)c1nc2ccccc2[nH]c1=O	18.5	22.1	2.7	1.6

# Continued; it opens with the two that closed the last part.
entry	SMILES	Ecoli rRNA inh	Ecoli rRNA inh OD600	Ecoli rRNA inh RFP	AF4-AF9 inh
49	O=C(C1CCC1)N1CC[C@@H]2[C@@H](CO)Nc3ccc(C#Cc4ccc(F)cc4)cc3[C@@H]21	-6.8	-38.2	26.9	u
50	O=C(c1cccc(Br)c1)c1nc2ccccc2[nH]c1=O	18.5	22.1	2.7	1.6
51	O=C1c2ccccc2C(c2nnnn2-c2ccc3c(c2)OCCO3)N1Cc1cccs1 (configuration not stated)	-15.2	-9.6	4.4	-7.9
52	COc1cccc(-c2ccc([C@H]3[C@@H](CO)N(C(=O)Cc4ccncc4)[C@H]3C#N)cc2)c1	-5.4	-19.8	-1.1	5.5
53	Cc1noc(C)c1NC(=O)Nc1ccc2c(c1)CC(=O)N([C@H](C)CO)C[C@@H](C)[C@H](CN(C)Cc1ccc(-c3ccccc3)cc1)O2	-2.1	-8.9	3.0	-2.2
54	CN(C)CC(=O)Nc1ccc2c(c1)[C@H]1C[C@@H](CC(=O)NCc3ccccc3)O[C@@H](CO)[C@H]1O2	5.4	7.9	-1.3	-1.1
55	C[C@@H]1CN([C@@H](C)CO)C(=O)c2cc(-c3ccc(F)cc3)cnc2O[C@@H]1CN(C)C(=O)c1ccccc1F	2.8	1.6	-3.6	-9.8
56	COc1ccc2c3c(n(C)c2c1)[C@H](CO)N(C(=O)Nc1ccc(F)cc1)CC31CCN(C(=O)Nc2ccc(F)cc2F)CC1	4.4	5.3	-0.5	-1.5
57	Cc1ccc(S(=O)(=O)N(C)C[C@@H]2OCc3cn(nn3)CCCC(=O)N([C@@H](C)CO)C[C@@H]2C)cc1	-1.5	-6.8	-1.2	-0.5
58	CO[C@@H]1CC[C@H]2CCOc3c(C#N)cccc3C(=O)N(C)C[C@@H](C)C(=O)N(C)C[C@H]1O2	7.1	8.0	-0.1	-3.3
59	CC(C)NC(=O)Nc1ccc2c(c1)CC(=O)N([C@H](C)CO)C[C@H](C)[C@@H](CN(C)Cc1ccncc1)O2	1.5	6.8	-0.8	-2.4
60	CO[C@H]1CN(C)C(=O)c2ccc(NC(C)=O)cc2OC[C@H](C)N(C(=O)c2ccncc2)C[C@H]1C	-1.5	1.7	0.6	-3.9
61	CS(=O)(=O)N1CC(=O)N2[C@H](CO)[C@@H](c3ccc(C#Cc4cccc(F)c4)cc3)[C@@H]2C1	-58.4	-74.2	-9.9	-1.8
62	COc1ccc(S(=O)(=O)Nc2ccc3c(c2)CC(=O)N([C@@H](C)CO)C[C@H](C)[C@H](CN(C)S(=O)(=O)c2ccc(OC)cc2)O3)cc1	0.0	-3.7	-0.6	2.2
63	N#C[C@@H]1N[C@H](CO)[C@H]1c1ccccc1	4.1	2.9	-1.1	0.4
